Rce1 inh – yeast Ras-converting enzyme inhibition | Q03530 | yeast membranes, quenched prenylated peptide cleavage fluorescence | calls only | 0.27% of 290,000 active | AID 2563;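 active = fall in fluorescence gain of 50% or more versus controls, with final raw signal at or below 3038400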;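 also: plate controls were neutral control wells for no effect and wells lacking membranes for full effect; tested at 10 µM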
Yeast UUG start – alters start codon recognition fidelity in yeast; S. cerevisiae UUG-firefly luciferase reporter, luminescence/redox ratio; activity score, % at 18.7 µM; 0.13% of 350,000 active;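 active = replicate mean at a twofold rise or more, about +100% in these data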;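 also: firefly luciferase made from a UUG start codon reports start codon fidelity; reporter light over untreated wells divided by growth signal over untreated wells; some hits fall short of that in this replicate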
eIF4H FP inh – inhibitors of RNA binding by human eIF4H; Q15056; eIF4H fluorescence polarization binding assay; inhibition, % at 35 µM; 0.94% of 290,000 active;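 active = 50% or more with normal probe brightness, or confirmed in later tests; about a fifth of its hits are not listed in these tables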;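 also: calls also rest on retests at 20 µM and on dose response follow-up; 0% = protein and probe with vehicle and 100% = probe without protein; strong numbers were not always called active; many hits fall short of the cut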
MT1-MMP act inh – blocks activation of human MT1-MMP; HT1080 RFP-PRO-GFP cells, GFP/RFP ratio fluorescence, overnight; percent of plate control window, DMSO zero; GFP/RFP ratio change, % at 20 µM; AID 651647; 0.061% of 360,000 active; P50281;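 active = GFP/RFP ratio change of at least 30% with cell ATP level not reduced by more than half and red fluorescence within 50% of control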; also: strong numbers were not always called active
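Compound: 20 µM single dose, 1% DMSO / System: HT1080 RFP-PRO-GFP cells / Controls: DMSO and RFP-L50D-GFP cell wells / Read-out basis: GFP/RFP fluorescence ratio / Schedule: overnight compound exposure at 37 °C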
Env fusion inh – HIV envelope-mediated fusion inhibition | HeLa-JRFL Env/CEM21 cell fusion, luciferase | inhibition, % at 12.3 µM | 1.1% of 360,000 active | AID 651610;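 active = mean replicate inhibition score of at least 50 and every replicate individually at or above 50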;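 also: 0% = plate neutral controls and 100% = maraviroc near 300 nM; one replicate is shown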
CSC inhib – cancer stem cell inhibition | cancer stem cell-like cells viability, luminescence | inhibition, % at 7.5 µM | 1.1% of 300,000 active;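 active = mean at 75% or more and at least half the replicates too; tested in HMLE shEcad cells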;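 also: 0% = median of negative and 100% = median of positive control wells; the first replicate is given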
PABP FP inh – blocks human PABP binding to poly(A) RNA; P11940; fluorescence polarization; inhibition, % at 35 µM; 1% of 290,000 active; AID 2014;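 active = 50% or more with normal probe brightness, or confirmed in later tests; about a fifth of its hits are not listed in these tables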;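 also: calls also rest on retests at 20 µM and on dose response follow-up; controls were probe without protein and protein plus probe with vehicle; some compounds called inactive have numbers as strong as hits; many hits fall short of the cut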
Target sequence (P11940 whole entry, looked up): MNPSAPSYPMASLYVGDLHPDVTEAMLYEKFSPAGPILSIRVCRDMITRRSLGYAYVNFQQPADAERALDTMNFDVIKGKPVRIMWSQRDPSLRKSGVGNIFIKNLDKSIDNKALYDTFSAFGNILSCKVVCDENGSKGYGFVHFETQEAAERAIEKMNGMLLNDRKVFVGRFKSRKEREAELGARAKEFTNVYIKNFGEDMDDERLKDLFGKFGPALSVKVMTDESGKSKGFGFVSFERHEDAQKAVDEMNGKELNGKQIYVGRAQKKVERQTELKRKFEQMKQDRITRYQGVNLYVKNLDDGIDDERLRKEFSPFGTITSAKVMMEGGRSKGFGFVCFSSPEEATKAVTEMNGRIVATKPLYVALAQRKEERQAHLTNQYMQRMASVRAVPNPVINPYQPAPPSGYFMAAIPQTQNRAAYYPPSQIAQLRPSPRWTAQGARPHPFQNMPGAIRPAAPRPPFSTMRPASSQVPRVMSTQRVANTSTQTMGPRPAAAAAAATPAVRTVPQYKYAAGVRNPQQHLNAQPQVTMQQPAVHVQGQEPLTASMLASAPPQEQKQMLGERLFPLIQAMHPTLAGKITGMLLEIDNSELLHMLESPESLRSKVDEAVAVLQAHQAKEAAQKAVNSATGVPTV
MT1-MMP act inh RFP – also measured in MT1-MMP act inh; calls as there; RFP signal change, %; measured here: RFP expression control read;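 0 = vehicle wells; hits needed this value within 50% of zero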
Starred values were filed as active, the others as inactive; i = inactive; / = no result given. Only part of the results is shown (hit frequency here may not be typical).

SMILES,Rce1 inh,Yeast UUG start,eIF4H FP inh,MT1-MMP act inh,MT1-MMP act inh RFP,Env fusion inh,CSC inhib,PABP FP inh
O=C(COC(=O)c1cncc(Br)c1)Nc1ccc(N2CCCCC2)cc1,/,-7,/,4,2,/,-14,/
Cc1ccc(-c2csc(=S)n2CC(=O)OCC(=O)NCc2ccco2)cc1,i,5,5,-3,-5,-7,-3,0
CCN(CC)CCCN1C(=O)C(=O)/C(=C(/O)c2ccc(OC)cc2)C1c1ccco1 (centres undefined),/,14,/,1,5,-21,-12,/
CC(=O)Cc1nsc(NC(=O)c2cn(-c3ccccc3)nc2-c2ccc(Br)cc2)n1,i,-13,2,-10,-8,-23,16,-9
COC(=O)C1CCCN1S(=O)(=O)c1ccc([N+](=O)[O-])cc1 (centres undefined),i,-12,4,-1,-3,2,-3,6
Cn1c(CN2CCCCC2)nc2cc(NS(=O)(=O)c3ccc(Cl)cc3)ccc21,i,-6,-1,2,-2,/,52,-3
Cc1cccc(NC(=O)CSc2nnc(CSc3nc(C)cc(C)n3)n2Cc2ccco2)c1,i,-5,0,1,2,-59,9,-2
CC(OC(=O)c1ccccc1Br)C(=O)Nc1nc(-c2cccc([N+](=O)[O-])c2)cs1 (centres undefined),i,/,3,1,-1,-65,1,-6
CSc1c(C#N)sc(=S)n1-c1ccc(C)cc1,i,-17,4,-3,0,-1,-3,0
Nc1nc(SCc2cccnc2)c2ncn(C3OC(CO)C(O)C3O)c2n1 (centres undefined),/,-6,/,1,3,8,/,/
CCn1c2ccccc2c2cc(NC(=O)C(C)OC(=O)c3ccc(NC(=O)CC#N)cc3)ccc21 (centres undefined),/,-13,/,3,0,/,28,/
CCCC(C)NC(=O)c1cc(C(=O)OC)cc([N+](=O)[O-])c1 (centres undefined),i,32,-2,19,14,-21,/,-2
COc1ccc(C(=O)NCC(c2ccco2)N2CCCC2)cc1S(=O)(=O)N1CCCCC1C (centres undefined),/,-1,/,-8,-2,/,7,/
Cc1ccc(NS(=O)(=O)c2ccc(N3C(=O)CCC3=O)cc2)cc1,i,-10,-1,1,0,-398,-6,-2
COc1ccc(OC)c(NC(=O)CN2c3cccc4cccc(c34)S2(=O)=O)c1,/,-14,/,4,-2,/,2,/
CCN1CCN(c2ccc(NC(=O)c3cc(OC)c(OC)c(OC)c3)cc2)CC1,i,10,-9,5,7,15,-10,-3
CCn1c(SCc2nc3ccccc3s2)nc2cc(S(=O)(=O)N3CCOCC3)ccc21,i,-13,/,-4,-9,-2,-8,/
Cc1cc(C)n(CC(O)COc2ccc(C(C)(C)C)cc2)n1 (centres undefined),i,-16,/,6,4,-10,-5,/
Cc1ccc(S(=O)(=O)N2C(=O)CCC2C(=O)O/N=C(\N)c2ccc([N+](=O)[O-])cc2)cc1 (centres undefined),i,-4,4,-2,0,22,-6,-3
Cc1nn(-c2ccc(Cl)cc2)c2[nH]c(CCl)cc(=O)c12,i,-27,-1,-8,-5,-5,53,11
COc1ccc(-c2ccc(CN3C(C(C)C)C(=O)N(Cc4cn(Cc5ccco5)nn4)CCS3(=O)=O)cc2)cc1OC (centres undefined),/,5,/,-1,-1,6,/,/
O=C(Nc1ccc2oc(-c3cccnc3)nc2c1)c1cccnc1,/,-12,4,-1,2,9,-13,37
O=C(NCc1ccco1)c1ccc(OCC2CCCO2)cc1 (centres undefined),i,-6,1,2,6,5,-2,5
COc1ccc(-c2cc(C(=O)Nc3cccnc3Cl)no2)cc1,/,-13,-5,-3,-1,-16,-4,-6
CCOC(=O)c1ccc(NC(=O)CSc2nnc(CC)o2)cc1,i,-1,1,0,4,-36,11,3

Profiles as entered above:
Listed for `CSc1c(C#N)sc(=S)n1-c1ccc(C)cc1` = Rce1 inh: i; Yeast UUG start: -17; eIF4H FP inh: 4; MT1-MMP act inh: -3; MT1-MMP act inh RFP: 0; Env fusion inh: -1; CSC inhib: -3; PABP FP inh: 0
Listed for `CCn1c(SCc2nc3ccccc3s2)nc2cc(S(=O)(=O)N3CCOCC3)ccc21` = Rce1 inh: i; Yeast UUG start: -13; eIF4H FP inh: /; MT1-MMP act inh: -4; MT1-MMP act inh RFP: -9; Env fusion inh: -2; CSC inhib: -8; PABP FP inh: /
Listed for `CCCC(C)NC(=O)c1cc(C(=O)OC)cc([N+](=O)[O-])c1` (centres undefined) = Rce1 inh: i; Yeast UUG start: 32; eIF4H FP inh: -2; MT1-MMP act inh: 19; MT1-MMP act inh RFP: 14; Env fusion inh: -21; CSC inhib: /; PABP FP inh: -2

Back to the main list; the four compounds before the break are reprinted first.
SMILES,Rce1 inh,Yeast UUG start,eIF4H FP inh,MT1-MMP act inh,MT1-MMP act inh RFP,Env fusion inh,CSC inhib,PABP FP inh
O=C(Nc1ccc2oc(-c3cccnc3)nc2c1)c1cccnc1,/,-12,4,-1,2,9,-13,37
O=C(NCc1ccco1)c1ccc(OCC2CCCO2)cc1 (centres undefined),i,-6,1,2,6,5,-2,5
COc1ccc(-c2cc(C(=O)Nc3cccnc3Cl)no2)cc1,/,-13,-5,-3,-1,-16,-4,-6
CCOC(=O)c1ccc(NC(=O)CSc2nnc(CC)o2)cc1,i,-1,1,0,4,-36,11,3
CCS(=O)(=O)Nc1ccc(C2=NN(C(=O)c3ccco3)C(c3cccs3)C2)cc1 (centres undefined),i,-6,-5,-2,-5,9,16,3
COc1ccccc1NC(=O)CSc1nc2sc3c(c2c(=O)n1-c1ccccc1)CCN(C)C3,i,-10,-11,-19,-7,-4,2,-16
CCOc1ccc(C2/C(=C(\O)c3ccc4c(c3)OCCO4)C(=O)C(=O)N2CCCN2CCOCC2)cc1OC (centres undefined),i,-11,-2,3,4,2,2,-4
C#CCOCC1CN(c2ccccc2)C(=O)O1 (centres undefined),/,-38,/,3,5,1,/,/
CC[C@H]1c2[nH]c3ccccc3c2C[C@H]2C(=O)N(c3ccc(F)cc3)C(=O)N21,i,-6,/,3,-13,/,-3,/
N/C(=N\OC(=O)CCCc1ccccc1)c1ccccn1,i,/,-2,1,5,-12,7,4
COc1ccc(/C=C/C(=O)OCC(=O)NCc2cccs2)cc1OC,i,-14,-2,4,5,/,34,9
Cn1c(N)c(S(=O)(=O)N2CCN(c3cccc(Cl)c3)CC2)c(=O)n(C)c1=O,i,-3,9,-4,0,11,-8,2
COc1cccc(CN2CCNC(=O)C2CC(=O)NCCn2nc(C)cc2C)c1OC (centres undefined),i,-11,18,1,3,4,2,11
O=C(O)Cn1nc(C(F)(F)F)c2c1CCCC2,i,/,-10,-2,-2,13,-16,0
O=C(CC12CC3CC(CC(C3)C1)C2)N1CCOCC1,i,-17,-8,10,5,/,-17,-2
CCCCc1ccc(NC(=O)Nc2cccnc2)cc1,i,-34,-6,4,4,-13,51,9
CCN(CC)CCCN1C=C2C(=O)C(C)(OC(=O)C3CCCC3)C(=O)C(c3ccccc3)=C2C=C1CCCC(=O)OC (centres undefined),i,-2,13,-9,3,-15,-3,44
COc1cc2c(cc1OC)CN(C(=O)CNC(=O)c1ccc(OC(F)F)cc1)CC2,i,-10,-8,-1,-2,5,-6,3
Fc1ccc(OCc2nn3cnnc3s2)cc1,/,-17,-11,2,2,-6,-10,0
COc1ccc(OCc2cc(C(=O)NC(C)Cc3cccnc3)no2)c(Cl)c1 (centres undefined),i,-6,-2,5,-6,12,-6,-5
COC(=O)c1cn(-c2ccc(Cl)cc2)c(=O)c2ccccc12,i,-12,-3,0,0,/,-10,-1
CCc1cc2c(=O)c(-c3nc4ccccc4[nH]3)coc2cc1OC(=O)N1CCOCC1,i,-19,-4,17,-3,-41,-9,-2
CN(c1ccc(O)cc1)c1nc(-c2cccnc2)cs1,i,-29,-2,5,-3,-18,-15,-4
CC(C)CCN(CCC(C)C)C(=O)Cc1c(O)c2ccccc2[nH]c1=O,i,-14,-5,2,3,23,3,-1
Cc1nnc(NC(=O)C2CCN(S(=O)(=O)c3ccc(F)c(Cl)c3)CC2)o1,/,-4,/,-3,-1,1,/,/
COc1cc(C(=O)Nc2cccc(C)c2C)c(Br)c(OC)c1OC,/,/,2,2,3,-2,7,-4
CCOC(=O)C1=C(CN2CCN(C(=O)c3ccco3)CC2)NC(=O)NC1c1ccc(Cl)cc1 (centres undefined),i,-12,-8,4,1,5,2,0
CCNc1nc(NCC)nc(OCCOC(=O)c2ccccc2)n1,i,-36,-17,4,5,14,22,-6
CCCCn1nnc(NC(=O)c2ccco2)n1,i,-16,-6,1,1,/,-14,23

Next part
SMILES,Rce1 inh,Yeast UUG start,eIF4H FP inh,MT1-MMP act inh,MT1-MMP act inh RFP,Env fusion inh,CSC inhib,PABP FP inh
COc1ccc(OC)c(NC(=O)CSC2=C(C#N)C(c3ccco3)C3=C(CCCC3=O)N2)c1 (centres undefined),i,-2,10,3,-1,/,-2,12
CCOC(=O)CSc1nc2c(c(=O)[nH]c(=O)n2C)n1C/C=C(/C)Cl,i,-10,2,0,-1,5,/,-7
CCOC(=O)N1CCN(c2ncnc3scc(-c4ccccc4)c23)CC1,i,4,-2,-6,-3,33,-8,1
CC1Cc2cc(/C(O)=C3/C(=O)C(=O)N(CCCn4ccnc4)C3c3cccc([N+](=O)[O-])c3)ccc2O1 (centres undefined),i,-19,-17,0,2,-4,-6,7
Cc1ccc(N=C2NC(=O)C(CO)(CO)S2)cc1,i,-25,6,0,2,-2,-3,-2
COc1ccc(/C=C/C(=O)O)cc1COc1cccc(C)c1,i,/,-8,6,3,4,-1,-1
CCOC(=O)N1CCC(N2C(=O)c3ccc(C(=O)NCc4ccco4)cc3C2=O)CC1,i,-16,3,3,2,-10,-11,-11
O=C(CN1C(=O)NC2(CCCCC2)C1=O)Nc1cc(C(F)(F)F)ccc1N1CCOCC1,/,4,/,-1,3,-376,/,/
CC(=O)Nc1cnn(Cc2ccc(Br)cc2)c1,i,/,-11,5,7,/,-3,-6
Cc1ccccc1COCCN1CCN(S(=O)(=O)c2ccccc2)CCC1=O,i,-16,-2,8,1,4,-8,-10
Cn1c(=O)cc(C(=O)N/N=C/c2ccc(Cl)cc2)[nH]c1=O,i,-6,3,-1,-2,8,-7,-2
COc1ccc(CN2CC(C(=O)NCCCOC(C)C)CC2=O)cc1 (centres undefined),i,/,-9,9,7,/,-18,-10
Nc1cc(C(=O)c2ccccc2)ccc1[N+](=O)[O-],i,/,-1,1,0,-33,-13,9
COc1ccc(NC(=O)/C(=C\c2ccncc2)NC(=O)c2ccccc2)cc1,i,4,-2,-1,-1,-2,13,10
Cc1ccc(SCC2=NNC(=O)C2)cc1,i,-23,2,5,1,1,2,-10
CC1=C(C(=O)OCCC(C)C)C(c2ccc3c(c2)OCO3)NC(=O)N1 (centres undefined),i,-1,-12,-2,-14,14,16,-3

Source: PubChem BioAssay (several laboratories)
